# High-throughput results as filed in PubChem BioAssay.
# Mtb H37Rv: Mycobacterium tuberculosis H37Rv growth inhibition, cell based, confirmatory dose response (AID 1949); most inactive calls were filed without a number and no value below 0 was filed; inhibition, % at 10 µg/mL; hits with a dose series show IC50 in µg/mL; 100,000 compounds, 1.6% hits;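 active means confirmed in a dose series; inconclusive means about 50% or more but not retested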;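 further: bacteria grown 7 days with compound before Alamar blue readout; 0% = untreated bacteria and 100% = reference antibiotic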
# * marks the source's active call; other numbers are inactive results; i = inactive; u = inconclusive.
smiles	Mtb H37Rv
CCc1nnc(NC(=O)C(Sc2ccccc2)c2ccccc2)s1 (stereo unspecified)	i
COc1ccc(C2=CC(c3ccc(F)cc3)n3nnnc3N2)c(OC)c1 (stereo unspecified)	27%
CCOC(=O)C1=C(c2ccccc2)NC2=C(C(=O)CC(C)(C)C2)C1c1cccc(O)c1 (stereo unspecified)	i
O=C(O)C1C2CCC(O2)C1C(=O)Nc1ccc(F)cc1 (stereo unspecified)	i
O=C(N/N=C/c1c(O)ccc2ccccc12)c1cc(-c2ccc3ccccc3c2)n[nH]1	37%
Cn1c(=O)n(C)c2cc(C(N)=O)ccc21	i
COC(=O)c1ccc(C2NC(=O)NC(C)=C2C(=O)OC(C)C)cc1 (stereo unspecified)	i
C=CCn1c(-c2cccnc2)n[nH]c1=S	i
O=C(Nc1cccc(Cl)c1Cl)c1cc(F)c(F)cc1Cl	i
COc1ccc(NC(=O)CNC(=O)c2cccc(C)c2)cc1	i
COc1ccc(NC(=O)Nc2cc(C(C)(C)C)on2)cc1OC	u
CCOc1cc(NC(=O)c2ccccc2)c(OCC)cc1NC(=O)CC	i
O=C(NNC(=O)c1ccc(Cl)cc1O)Nc1cccc(F)c1	i
Cc1ccc(NC(=O)Cn2ccc([N+](=O)[O-])n2)cc1Cl	i
CCNC(=O)COc1ccc(C(C)(C)C)cc1Br	i
COC(=O)C1=C(C)N(Cc2ccccc2)C(=O)NC1c1ccc(OC)c(OC)c1 (stereo unspecified)	i
O=C(O)CCC(=O)Nc1nc(-c2cc3c(ccc4ccccc43)oc2=O)cs1	i
CN(C)CCNC(=O)c1ccccc1Br	i
Nn1c(C(O)c2ccccc2)n[nH]c1=S (stereo unspecified)	4%
O=C(CSc1nnnn1-c1ccccc1F)NCc1ccc2c(c1)OCO2	6%
Cc1ccc(-n2nc(C)c3c(C)cc(=O)[nH]c32)cc1	i
Cc1cc(Cl)c(OCCCCN2CCC(C)CC2)c(Br)c1	6%
Cc1ccc(OCC(O)CN2CCc3ccccc3C2)c(C(C)(C)C)c1 (stereo unspecified)	5.9µg/mL*
Cc1cccc(C)c1NC(=O)C(=O)NC1CCCC1	i
COCCN1C=C(C(=O)OC)C(c2cccc(Oc3ccccc3)c2)C(C(=O)OC)=C1	i
O=C(Nc1ccc(O)cc1C(=O)O)c1cccc(Br)c1	i
Oc1ccc(-c2n[nH]c(C(F)(F)F)c2Oc2ccccc2)c(O)c1	i
CCc1ccc(OCCCC(=O)Nc2nc(-c3ccc([N+](=O)[O-])cc3)cs2)cc1	i
O=C(Nc1ccc(N2C(=O)C3CCCCC3C2=O)cc1)c1ccccc1 (stereo unspecified)	i
COc1ccc(NC(=O)CN(c2ccc(C)c(C)c2)S(C)(=O)=O)c(OC)c1	i

# Of the compounds above, 3 have a COOH group.
smiles	Mtb H37Rv
O=C(O)C1C2CCC(O2)C1C(=O)Nc1ccc(F)cc1 (stereo unspecified)	i
O=C(O)CCC(=O)Nc1nc(-c2cc3c(ccc4ccccc43)oc2=O)cs1	i
O=C(Nc1ccc(O)cc1C(=O)O)c1cccc(Br)c1	i

# Continuation:
smiles	Mtb H37Rv
Cc1ccc(NC(=O)CSc2nnc(C(C)NC(=O)c3ccccc3C)n2C)c(C)c1 (stereo unspecified)	i
CCOc1ccc(C(=O)Nc2ccc(F)c(Cl)c2)cc1Br	8%
COc1ccc(C(=O)NCC(C)C)cc1Cl	i
S=C(NCC1CCCO1)Nc1ccc2c(c1)CCC2 (stereo unspecified)	i
CCOC(=O)c1ccc(NC(=O)c2cc(OC)c(OC)cc2OC)cc1	i
COc1ccc(C(C)(C)C)cc1NC(=O)C1CC(=O)N(c2ccc(OC(C)C)cc2)C1 (stereo unspecified)	11%
Clc1ccc(-c2nnc(N3CCCC3)nn2)cc1	i
CCC(C(=O)O)n1cnc2sc(C)c(-c3ccccc3)c2c1=O (stereo unspecified)	i
Clc1ccc(-c2nnc(SCc3nc4ccccc4[nH]3)o2)c(Cl)c1	i
Cc1cc2c3c(c1)C1(C(=O)N3C(C)(C)CC2C)C(C#N)=C(N)OC2=C1C(=O)CC(C)(C)C2 (stereo unspecified)	5%
CCSc1nnnn1-c1cccc(C(=O)O)c1	i
S=C(Nc1cccnc1)N1CCc2ccccc21	i
CCOc1ccc(OCC(=O)Nc2cccc(F)c2)cc1	<0.1µg/mL*
C=CCN(CC=C)S(=O)(=O)c1ccc(NC(=O)c2ccccc2C)cc1	i
Cc1ccc(S(=O)(=O)NCC(=O)Nc2ccc(Cl)c(C(F)(F)F)c2)cc1	i
CCN(CC)C(=O)c1sc(NC(=S)Nc2ccc([N+](=O)[O-])cn2)c(C(=O)OC)c1C	i
N#Cc1c[nH]n2c(=O)cc(Cc3ccccc3)nc12	i
CC(=O)NC1(C(F)(F)F)C(=O)N(Cc2ccccc2)C(C)=C1C(=O)c1ccccc1 (stereo unspecified)	i
CC(C)CCSc1nc2c(c(=O)[nH]1)C(c1ccccc1Br)C1=C(CCCC1=O)N2 (stereo unspecified)	i
CCOc1ccccc1NC(=O)CNC(=O)Cc1ccccc1	i
O=C(Cc1ccc(Cl)cc1)Nc1cc(Cl)ccc1O	i
COc1ccc(-c2cc(=O)[nH]c(SCC(=O)Nc3cccc(Cl)c3C)n2)cc1	i
CCOC(=O)C1=C(C)N(c2ccccc2)C2(SC(C(C)=O)=NN2c2ccc([N+](=O)[O-])cc2)S1 (stereo unspecified)	i
O=C(CCc1ccccc1)NC(c1cccs1)c1ccc2cccnc2c1O (stereo unspecified)	0%
COCCNC(=O)CCC1CCCCC1	i
COc1ccccc1C(=O)N(CCN(C(=O)c1ccccc1OC)c1ccccc1)c1ccccc1	1%
COc1ccc(N2CCN(C(=O)COCC(=O)O)CC2)cc1	i
CC(C)N=C(NS(=O)(=O)c1ccccc1)c1ccccc1	i
COc1ccc(NC(=O)c2cc3ccccc3o2)cc1OC	i
COC(=O)c1c(NC(=O)c2ccc(C)o2)sc2c1CCC(C)C2 (stereo unspecified)	i

# Structures listed so far that contain bromine:
smiles	Mtb H37Rv
CCNC(=O)COc1ccc(C(C)(C)C)cc1Br	i
CN(C)CCNC(=O)c1ccccc1Br	i
Cc1cc(Cl)c(OCCCCN2CCC(C)CC2)c(Br)c1	6%
O=C(Nc1ccc(O)cc1C(=O)O)c1cccc(Br)c1	i
CCOc1ccc(C(=O)Nc2ccc(F)c(Cl)c2)cc1Br	8%
CC(C)CCSc1nc2c(c(=O)[nH]1)C(c1ccccc1Br)C1=C(CCCC1=O)N2 (stereo unspecified)	i

# Returning to the listing, repeating the 2 entries before the break.
smiles	Mtb H37Rv
COc1ccc(NC(=O)c2cc3ccccc3o2)cc1OC	i
COC(=O)c1c(NC(=O)c2ccc(C)o2)sc2c1CCC(C)C2 (stereo unspecified)	i
COc1ccc(CCNC(=O)COc2ccc(C(C)C)cc2Br)cc1OC	8%
O=C(CSc1nc2ccccc2s1)Nc1nc(-c2ccc(Br)cc2)cs1	i
CCOc1cccc(-c2nc3ccc(OC(=O)CC)cc3c(=O)o2)c1	42%
CCC(NS(=O)(=O)c1ccc(C)cc1)C(=O)Oc1cc2oc(=O)cc(C)c2cc1Cl (stereo unspecified)	i
COc1ccccc1NC(=O)CN(C)S(=O)(=O)c1cc(Cl)ccc1Cl	i
CCOc1ccc(N(CC(=O)Nc2ccc(NC(C)=O)cc2)S(=O)(=O)c2ccc(SC)cc2)cc1	i
CC(c1ccccc1)N1C(=O)C(Cc2c[nH]c3ccccc23)NC1=S (stereo unspecified)	i
COc1ccc(NC(=S)NC(=O)c2c(-c3ccccc3Cl)noc2C)cc1[N+](=O)[O-]	i
Cc1cc(=O)[nH]c(SCc2cnc(C)nc2N)n1	i
COc1ccc2c(c1)-c1nc(NC(=O)c3cccnc3)sc1CC2	i
CC(C)(C)NC(=O)COc1ccc(CNC2C3CC4CC(C3)CC2C4)cc1 (stereo unspecified)	i
CCn1c(SCC(=O)Nc2ccc(C(=O)OC)cc2)nnc1C(C)Oc1ccccc1 (stereo unspecified)	45%
Cn1nnc2cc(C(=O)N3CCSCC3)ccc21	i
COc1ccccc1-c1nc2ccc(Br)cc2c(=O)o1	i
O=c1c(-c2ccc(Oc3ccccc3)cc2)[n+]([O-])c2ccccc2n1O	i
Cn1c(=O)n(C)c2cc(S(=O)(=O)N3CCCC3)ccc21	i
CCC(C)c1ccc(OCc2ccc(C(=O)O)o2)cc1 (stereo unspecified)	i
Cc1cc(C)cc(NC(=S)NCc2ccc(S(N)(=O)=O)cc2)c1	i
Cc1cc(Cl)ccc1OC(=O)CN1C(=O)c2ccccc2C1=O	i
COc1ccc(C(=O)CSc2nnc(C(O)c3ccccc3)n2-c2ccccc2)cc1 (stereo unspecified)	i
COc1cccc(CN2CCCC(C(=O)N3CCc4ccccc4C3)C2)c1 (stereo unspecified)	i
CCOC(=O)c1cnc2c(OC)cccc2c1NCCO	i
CC(=O)OCCCN1CCCCC1	i
N#Cc1ccc(CSc2nc(-c3ccccc3)cc(=O)[nH]2)cc1	i
Cc1cccc(Nc2cc(Cl)c3nonc3c2[N+](=O)[O-])c1C	1.3µg/mL*
CCN(C(=S)NC(=O)c1cccc([N+](=O)[O-])c1)c1ccccc1	i
Cc1csc(NC(=O)CSc2nncn2C)n1	i
CCCn1nnc(NC(=O)c2ccc(-c3ccc(Cl)cc3)o2)n1	17%
COc1ccc(C(C)=O)cc1CSCCC#N	i
COc1ccc(Nc2nc(N3CCOCC3)nc3ccccc23)c(OC)c1	i

# Continuation:
smiles	Mtb H37Rv
COc1ccccc1NC(=O)CCCOc1cc(C)ccc1C	i
CCc1ccccc1NC(=O)c1ccc(C)c(Cl)c1	i
C=CCn1c(SCCc2ccccc2)nc2ccc(Br)cc2c1=O	i
N#Cc1c(C(F)(F)F)cc(C2CC2)nc1SCCN1CCCCC1	i
COc1ccc(N2CCN(CC(O)COc3ccc(C(C)(C)C)cc3)CC2)cc1 (stereo unspecified)	i
O=C(c1ccc(Cl)cc1Cl)n1cccn1	i
O=C(Nc1ccc(I)cc1C(F)(F)F)c1cc2ccccc2o1	i
CC(NC(=O)c1cc(-c2cccnc2)nc2ccc(Cl)cc12)C1CCCO1 (stereo unspecified)	i
Cc1ccc(CNC(=O)C2CC2c2ccccc2)cc1 (stereo unspecified)	i
S=c1[nH]nc(-c2ccccc2Cl)n1C1C=CCCC1 (stereo unspecified)	i
CCN(CC)c1ccc2cc(C(=O)c3cc4ccc(N(CC)CC)cc4oc3=O)c(=O)oc2c1	i
CN1CCN(c2ccc([N+](=O)[O-])c(Sc3nncn3C)c2)CC1	i
C=CCc1cccc2cc(C(=O)N3CCN(Cc4ccccc4)CC3)c(=O)oc12	i
O=S(=O)(c1ccc(Br)cc1)N1CCCCCC1	i
CCSc1nc(O)c(Cc2ccccc2)c(=O)[nH]1	i
COc1ccc(-c2nc3ccccc3n3cc4c(=O)n(C)c(=O)n(C)c4c23)cc1	0%
Cc1ccc(C(=O)Nc2ccc(C(=O)O)cc2NC(=O)c2ccc(C)cc2)cc1	2%
Cc1nc(-c2cccc(NS(=O)(=O)c3ccc(F)cc3)c2)cs1	5%
COc1ccc(C)cc1NC(=O)CSc1nnc(COc2ccc(C(C)C)cc2)o1	45%
COc1ccc(CC(=O)Nc2sc(Cc3ccccc3)c(C)c2C(N)=O)cc1	i
CCCSc1nnc2nc(C)cc(C)n12	i
COc1ccccc1CNC(=O)C(C)NS(=O)(=O)c1ccccc1 (stereo unspecified)	i
CCOC(=O)C1=C(C)NC(=O)NC1c1ccccc1 (stereo unspecified)	i
CCN(CC)C(=O)N1CCc2ccccc2C1CN1C(=O)c2ccccc2C1=O (stereo unspecified)	4%
O=C(c1cc2ncc(Br)cn2n1)N1CCC2(CC1)OCCO2	i
Cc1ccc(Cl)c2c1NC(=O)C2(O)c1c(C)[nH]c2ccccc12 (stereo unspecified)	i
CCOC(=O)c1c(-c2ccc(F)cc2)csc1NC(=O)c1ccccc1F	i
COC(=O)c1sc2cc(NC(=S)Nc3ccccc3-c3ccccc3)ccc2c1Cl	32%
Cc1noc(C)c1C(=O)Nc1nnc(-c2ccncc2)s1	i
CC(C)NC(=O)c1ccccc1NS(=O)(=O)c1ccccc1	0%

# More compounds follow:
smiles	Mtb H37Rv
COc1ccc(Cl)cc1NC(=O)N1CCN(S(C)(=O)=O)CC1	i
CCOc1ccc(OCCOCCn2ccnc2)cc1	i
COc1cccc(NC(=O)C23CCC(C)(C(=O)C2)C3(C)C)c1 (stereo unspecified)	i
CCOC(=O)c1c(NC(=S)NC(=O)CSc2ccccc2)sc2c1CCC2	i
CCOc1ccc(OCc2ccc(C(=O)N3CCc4ccccc4C3)cc2)cc1	i
COc1ccc(N(CC(=O)N2CCc3ccccc3C2)S(=O)(=O)c2ccccc2)cc1OC	i
COc1ccc(C(C)NC(=O)Nc2ccc(C(C)=O)cc2)cc1OC (stereo unspecified)	i
Cc1ccc(CN(c2ccc(C(=O)NC(C(C)C)C(C)C)cc2)S(C)(=O)=O)cc1	i
O=C(Nc1ccc2snnc2c1)N1CCC(c2ccccc2)C1 (stereo unspecified)	14%
COc1cccc(NC(=O)C(=O)NCc2ccc(C(C)C)cc2)c1	i
CC(C)(C)NC(=O)CN(c1ccc(F)cc1)S(=O)(=O)c1ccc2c(c1)OCCO2	4%
CCSc1ccccc1C(=O)N1CCN(c2ccccc2F)CC1	i
C=CCn1c(SCC(=O)c2ccc(Br)cc2)nnc1-c1ccc(C)cc1	i
COC(=O)c1cc(NC(=O)CSc2ccccn2)cc(C(=O)OC)c1	i

# An excerpt. The share of hits here may be higher or lower than overall.
